Tgondii IFNg = inhibitors of Toxoplasma gondii growth with IFN-gamma. 3.8% of 69,000 active. activity change, negative = inhibition, %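 (about 20 µM by stock and volumes)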. AID 1259416. Toxoplasma gondii growth in IFN-gamma-treated host cells; active compounds read low; reference of the scale not given here;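 active means below -70%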;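 further: host cells are HeLa cells infected with Toxoplasma gondii; parasite growth read as luciferase light; one replicate is shown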
Starred values were filed as active, the others as inactive; i = inactive; & = joins results of further samples.

SMILES	Tgondii IFNg
COc1cncc(-c2cc(Cl)ccc2OC)c1	-11
Cc1ccc(-c2nc(CCNC(=O)C(=O)Nc3ccc(F)cc3F)cs2)cc1	6
CC(C)c1cc(C2CCN(C(=O)C3CCN(Cc4ccco4)CC3)CC2)[nH]n1	4
CN1CCC2(CC1)CN(C(=O)COCC1CCCO1)CCCN2C (stereo not drawn)	-38
Cc1cnc(CNC(=O)c2cn(CC3CCCNC3)nn2)cn1 (stereo not drawn)	-11
COc1ccccc1-n1c(=O)n(Cc2nc(-c3ccc(Cl)cc3)oc2C)c(=O)c2cccnc21	39
O=c1[nH]c2cc(Cl)ccc2c(O)c1-c1cccc(Oc2ccccc2)c1	7&17
COc1ccc(-n2c(=O)c(C(=O)NCc3ccc4c(c3)OCO4)c(O)c3cccnc32)cc1	6
CC(C)CN1CCC(NCC(C)Oc2cccnc2)CC1 (stereo not drawn)	2
COc1ccc(C[C@@H]2CCn3nncc3COC[C@H](CC(C)C)NC2=O)cc1	-15
CC(C)N(C(=O)c1cc2cccnc2n(Cc2ccc(F)cc2)c1=O)C(C)C	-44
C[C@@H]1CN([C@H](C)CO)C(=O)c2cc(NC(=O)Cc3ccccc3)ccc2O[C@@H](C)CCCCO[C@H]1CN(C)Cc1ccncc1	-11
O=C1CCc2cc(S(=O)(=O)N3CCN(S(=O)(=O)c4cccc(F)c4)CC3)cc3c2N1CC3	35
COc1ccc(CSc2nnc(C)s2)cc1F	69
CC(=O)c1cnc2cc(C(=O)N3CCC(O)(c4ccccc4C)CC3)nn2c1C	58
OCC#Cc1csc(CN2CCCC(c3nc4ccccc4o3)C2)c1 (stereo not drawn)	-4
CC(=O)N[C@H]1C[C@@H](CC(C)C)O[C@@H](CCc2ccccc2)C1	-12
CCS(=O)(=O)N1CCc2cc(OC)c(OC)cc2C1c1ccc(OC)c(OC)c1 (stereo not drawn)	36
O[C@@H]1CNCC[C@H]1CNCc1cccc(Oc2cccc(C(F)(F)F)c2)c1	-100*
CO[C@H]1CN(C)C(=O)c2ccc(NC(=O)c3ccccc3F)cc2OC[C@@H](C)N(C)C[C@@H]1C	115
Cc1occc1C(=O)N1CC[C@@H]2CN(c3ncccn3)CCO[C@H]2C1	-11
Cc1ccc(C2(O)CCN(C(=O)OCC(C)C)CC2)nc1	6
O=C(C1CCCO1)N1CCC(NCc2cccc(-n3cccn3)c2)CC1 (stereo not drawn)	3
CN(C)[C@@H]1CN(S(=O)(=O)c2cccc(F)c2)[C@H]2COC[C@@H]12	1
Cc1cc(Cl)ccc1NC(=O)Cn1ncc2c(N3CCOCC3)ncnc21	-35
O=C1CC(C(=O)N2CCC[C@]3(CCC(=O)N3)[C@H]2c2cccc(F)c2)c2ccccc2N1 (stereo partly drawn)	24
Cc1ncc(C(=O)O)c(C(=O)O)c1N	12
CCOC(=O)c1sc(COc2ccccc2OC)nc1C	0
COc1ccc(CN2CCC(c3cc4c(ncn4C)c(-c4ccccc4)n3)CC2)cc1	-14
CCOC(=O)c1nc(Nc2ccccc2Cl)c2ccccc2n1	-6
O=C(c1cccc(F)c1)N1CCC(c2nc(-c3nccs3)cc(=O)[nH]2)CC1	23
COc1c(C(C)=O)c(O)c(OC)c2occc12	26
CO[C@H](CN(C)C(=O)Nc1ccc(Cl)cc1)[C@H](C)CN(Cc1ccccc1Cl)[C@@H](C)CO	73
CCCCNC(=O)Cn1c(=O)cc(-c2nc(C(C)C)no2)c2ccccc21	0
Cc1ccc(N2CCO[C@H]3CN(C(=O)c4cccc(C)n4)C[C@@H]32)nn1	-5
CCc1oc(C(=O)Nc2ccc(Cn3cncn3)cc2)cc1CN1CCOCC1	20

Exported as labelled records: entries from further up
Cc1ncc(C(=O)O)c(C(=O)O)c1N
  Tgondii IFNg: 12
COc1ccc(CN2CCC(c3cc4c(ncn4C)c(-c4ccccc4)n3)CC2)cc1
  Tgondii IFNg: -14

Following part.
SMILES	Tgondii IFNg
COc1cccc(OCC(=O)NCCc2csc(-c3cccc(F)c3)n2)c1	45
COCCCN=C(Nc1cccc(C(=O)O)c1)N1CCN(c2ncnc3ccccc23)CC1	35
CCOC(=O)CCc1csc(N)n1	31
Cc1ccc(OCCN2CCCC2)c(NC(=O)c2cccn3nnnc23)c1	-43
Cc1cnc(C)c(-c2cccc(OC(C)C)c2)n1	2
COc1ncccc1C1CC(=O)Nc2c1c(C)nn2C(C)C (stereo not drawn)	-46
CCN1CCOCC2(CCCN(C(=O)c3cc4ccccc4[nH]3)C2)C1 (stereo not drawn)	1
Cc1noc(C)c1S(=O)(=O)N(C)C[C@H]1Oc2c(NS(=O)(=O)c3cn(C)cn3)cccc2C(=O)N([C@H](C)CO)C[C@@H]1C	16
CC(C)N(Cc1nccn1C)C(=O)CC1CCc2ccccc21 (stereo not drawn)	-3
CCN1C[C@]23CN(C(=O)c4cc(C)on4)C[C@@H](C[C@H]2S1(=O)=O)O3	2
CC(=O)N1CCO[C@H]2CCN(C(=O)c3cc(C)[nH]n3)C[C@H]21	-3
CCCn1ncc(C(=O)NCc2ccc(-c3noc(C)n3)cc2)c1C	-14
COCc1cncc2c1CCN(C(=O)c1cc(C)on1)C2	-1
Cc1ccc(CN2CCc3cnn(C)c3C2COCC2CC2)o1 (stereo not drawn)	2
O=C(c1ccco1)N1C[C@@H]2[C@H](C1)c1ccccc1[C@@H]2N1CCOCC1	-60
COc1ccccc1S(=O)(=O)N[C@H]1C=C[C@H](CC(=O)N2CCOCC2)O[C@H]1CO	19
O=C(NC1C2CC3CC(C2)CC1C3)c1ccc(Br)o1 (stereo not drawn)	-6
O=C1CCc2cc(NC(=O)c3n[nH]c4ccccc34)ccc2N1	137
CCn1c(C2CCN(Cc3ccnn3-c3ccccc3)CC2)nn(C)c1=O	75
CCCCc1nc2ccn(CC(=O)N(C)C)c(=O)c2n1Cc1ccc(-c2ccccc2-c2nn[nH]n2)cc1	10&16
Cc1cccc(-n2ccc(-c3cnccn3)n2)c1	257
c1coc(CN2CCC3O[C@H](COCCN4CCCC4)CCC32)c1 (stereo partly drawn)	-4
O=C(NCc1ccc2c(c1)OCO2)c1c(O)c2cccnc2n(-c2ccc(F)cc2)c1=O	181
Cc1noc(C)c1CN(C)Cc1cc2n(n1)CCCNC2	4
CCOCC1CC2(CCN(C(=O)COc3ccc(C)cc3)CC2)CO1 (stereo not drawn)	-27
CCc1ccc(NC(=O)C(=O)NCCc2sc(-c3ccc(Cl)cc3)nc2C)cc1	136
CCOc1ccc(-c2nc3c(s2)CN(C(=O)Nc2ccc(C)cc2C)CC3)cc1	98
O=C(CCc1ccco1)N1CC[C@@H](c2ccc3ccccc3c2)[C@H](O)C1	8
O=C(CCCn1cccn1)N1CCOC(c2ccc(Cl)cc2)C1 (stereo not drawn)	-26
Cc1cc(C(O)CN2CCC(O)(c3cccc(C(F)(F)F)c3)CC2)c(C)s1 (stereo not drawn)	-22
Cc1cc(C)c2c(CC(=O)N3CCC[C@]4(CCC(=O)N4)[C@H]3c3ccc(F)cc3)coc2c1	0
CCCNC(=O)C[C@@H]1CC[C@H]2[C@@H](COc3ccc(NC(=O)CC)cc3C(=O)N2C)O1	-14
Cc1ccc(C)c(C(O)CN2CCC(Oc3cccnc3)CC2)c1 (stereo not drawn)	20
O=C(c1cccc(F)c1)N1CCC(c2nc3ccc(N4CCCC4)cn3n2)CC1	10
CNC(=O)c1cccc(S(=O)(=O)N2CCN3CCNC(=O)C3C2)c1 (stereo not drawn)	1
O=C(C[C@@H]1CC[C@H]2NC[C@H](O)COC[C@@H]2O1)NCCc1ccncc1	-29
O=C1CCCN1C1CCCN(CCn2cncn2)C1 (stereo not drawn)	3
CNC(=O)CC1CC2(CCN(S(=O)(=O)c3cccs3)CC2)c2ccccc21 (stereo not drawn)	-7
CCN1c2cc(F)ccc2C(=O)NC12CCN(C(=O)c1ccc3c(c1)OCO3)CC2	-40
Cc1cc(C2CCC2)nc(N2CCc3nnc(C)n3CC2)n1	-32
COc1ccc(NS(=O)(=O)c2ccc(I)cc2)cc1N1CCN(C)CC1	-19&-13
O=C1C[C@H]2[C@H](CCN2S(=O)(=O)c2ccccc2F)N1	-16
CCOC(=O)CCCCCC(=O)Nc1ccc2c(c1)C(=O)N([C@@H](C)CO)C[C@H](C)[C@H](CN(C)C(=O)Nc1ccc(C(F)(F)F)cc1)OCCCC[C@H](C)O2	28
COc1ccc(-c2nc(C)c(CCNC(=O)c3c(F)cccc3F)s2)cc1OC	i
O=C(Nc1cccc(Cl)c1)c1c(O)c2ccccc2[nH]c1=O	392
COc1cc(NC(=O)COc2nc(C)nc3ccccc23)cc(OC)c1	0
COc1ccc(C(=O)N(c2ccc(C)c(Cl)c2)C2(C(=O)NCc3ccccc3)CCN(C(C)=O)CC2)cc1	70
Nc1nnc2c(Nc3ccccc3)nc3nonc3n12	212

The list goes on, starting with the last 5 of the part before.
SMILES	Tgondii IFNg
COc1ccc(-c2nc(C)c(CCNC(=O)c3c(F)cccc3F)s2)cc1OC	i
O=C(Nc1cccc(Cl)c1)c1c(O)c2ccccc2[nH]c1=O	392
COc1cc(NC(=O)COc2nc(C)nc3ccccc23)cc(OC)c1	0
COc1ccc(C(=O)N(c2ccc(C)c(Cl)c2)C2(C(=O)NCc3ccccc3)CCN(C(C)=O)CC2)cc1	70
Nc1nnc2c(Nc3ccccc3)nc3nonc3n12	212
CCCNC(=O)Nc1ccc2c(c1)OC[C@H](C)N(C(=O)C1CCOCC1)C[C@H](C)[C@@H](OC)CN(C)C2=O	-2
CCOC(=O)C1CCCN(CCCc2ccccc2)C1 (stereo not drawn)	9
COCC(=O)N1[C@@H]2CN(C)c3ccccc3[C@@H]2[C@@H]1CO	-1
Cc1ccc(C(=O)N2CCCn3nnc(Cn4cccn4)c3C2)cc1	25
O=S(=O)(c1ccc(Cl)c(Cl)c1)N1CCC2(CC1)Nc1ccccc1-n1cccc12	43
CC(NC(=O)Cc1ccccc1F)c1nc2cccnc2n1C(C)C (stereo not drawn)	3
Cn1nc(CN2CCCCC2)c2c1CN(C(=O)Nc1ccc(F)cc1)C2	3
COc1ccc(NC(=O)CN2CCC3(CC2)N=C(c2ccc(F)cc2)C(=O)N3)c(OC)c1	40
C[C@@H]1CN([C@H](C)CO)C(=O)CCCn2nncc2CO[C@H]1CN(C)Cc1ccc(C(=O)Nc2ccccc2N)cc1	256
O=C(Cc1ccccc1)NCC(=O)OCC(=O)c1cccs1	-5
CC(C)NC[C@@H](O)c1ccc(NS(C)(=O)=O)cc1	21
O=C(c1[nH]cnc1-c1ccccc1)N1C[C@H]2CC=CC[C@H]2C1	15
CCc1cnc(C)nc1N1CCN(CCc2ccccc2)CC1	-8
CN(C)c1cc(C(=O)N2CCC(c3noc4cc(F)ccc34)CC2)ccn1	5
c1ccc(CSc2nnc3nc4c5ccccc5c5ccccc5c4nn23)cc1	51
CCn1c(COc2ccccc2C)nnc1SCc1cc(=O)[nH]c2c(C)cc(C)cc12	37
C=CCOC[C@H]1CNC(=O)[C@H]2CCN(C(=O)N3CCCC3)CC[C@@H]12	25
Cc1nn(C(F)F)c(C)c1S(=O)(=O)NC(C)Cc1ccccn1 (stereo not drawn)	-17
Cc1ccc(CC2(NC(=O)C(C)N3CCCC3=O)CC2)cc1 (stereo not drawn)	-11
Cc1cc2cc(C(=O)NCCc3csc(-c4ncccn4)n3)ccc2o1	1
Cc1ccc(NS(=O)(=O)c2cc3c4c(c2)CCN4C(=O)CC3)cc1F	-6
Cc1cc(CN2CCc3c(CNc4ncccn4)cncc3C2)oc1C	-1
Cc1ccc(S(=O)(=O)Nc2ccc(C)cc2NS(=O)(=O)c2ccc(C)cc2)cc1	-23
COc1ccc(-c2[nH]ncc2CNC(=O)Cc2cccnc2)cc1	-21
O=C(COc1ccc(Cl)cc1)NCc1ccccc1	97
Cc1ccc(CN2CCC3C2CC(=O)N3CCN2CCOCC2)o1 (stereo not drawn)	36
CCOc1ccccc1NC(=O)c1nnn(Cc2nc(-c3ccc(Cl)cc3)oc2C)c1C	5
CCOc1ccc2ccccc2c1CNc1nnnn1C	16
CC(C)CNC(=O)N1CCC2(CC1)Nc1ccccc1-n1cccc12	127
CN(CCc1noc(C2CC2)n1)C(=O)C(=O)N1CCc2ccccc21	-2
c1ccc2ncc(CC3CNCCOC3)cc2c1 (stereo not drawn)	16
COc1ccc(-n2c(=O)c(C(=O)NCc3ccco3)c(O)c3cccnc32)cc1	-10
Cc1c(-c2ccc(Cl)cc2)n[nH]c1C(=O)N1CCCC2(CNC(=O)O2)C1 (stereo not drawn)	-22
Cc1cc(C)cc(S(=O)(=O)N2CCC3(CC2)NCCN=C3NC2CCCC2)c1	-39
O=c1[nH]c2cc(F)ccc2c(O)c1-c1nc(-c2ccccn2)no1	-7
O=C(c1cccc(CC2CCNCC2)c1)N1CCC(Nc2ncccn2)CC1	-1
Cc1noc(C)c1NC(=O)N(C)C[C@H]1Oc2cc(C#CCN(C)C)ccc2S(=O)(=O)N([C@@H](C)CO)C[C@H]1C	157
COc1ccccc1CNC(=O)c1ccc(-c2nc(CN3CCc4ccccc43)c(C)o2)cc1	-8
Cn1ncc2c(NCCN3CCCC3=O)nc(C(C)(C)C)nc21	-17
O=C(CCCC(=O)NCc1cccs1)NCc1cccs1	-39
Cc1cnc(CN2CCC(Cc3nn(C)c(=O)n3-c3ccccc3)CC2)[nH]1	11

Three structures already listed, arranged by count of non-hydrogen atoms, high to low.
SMILES	Tgondii IFNg
COc1ccccc1CNC(=O)c1ccc(-c2nc(CN3CCc4ccccc43)c(C)o2)cc1	-8
CCS(=O)(=O)N1CCc2cc(OC)c(OC)cc2C1c1ccc(OC)c(OC)c1 (stereo not drawn)	36
COc1ccc(NS(=O)(=O)c2ccc(I)cc2)cc1N1CCN(C)CC1	-19&-13

High-throughput results (PubChem BioAssay)

The list is partial; the hit share may differ from the screen's.
